Bioassay records from PubChem.
RanGTP-Imp inh – inhibitors of RanGTP-importin-beta interaction, primary screen, biochemical, FRET, CFP-Ran, YFP-importin-beta, homogeneous; Ran GTPase (GTP-bound) - importin-beta complex; cell-free CFP-Ran/YFP-importin-beta FRET ratio; inhibition, % (concentration not given with the values); 1.1% of 300,000 active; AID 2216, 2009;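 active = most replicates above 15%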;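 also: 0% = DMSO wells and 100% = Ran loaded with GDP instead of GTP; wells of about 40 µL received 100 nL stock; the first replicate is given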
Calb FLC – C. albicans growth inhibition with fluconazole, primary screen, CaCi-2 strain, Alamar Blue fluorescence | C. albicans CaCi-2 (fluconazole-resistant clinical isolate) + fluconazole, 48 h | growth inhibition, % (test concentration not listed) | 0.57% of 300,000 active | AID 1979, 2009;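 active = most replicates above 75%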;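 also: all wells also contain fluconazole at 8 µg/ml as a sub-toxic cotreatment; 0% = median of DMSO wells and 100% = median of geldanamycin control wells; wells of about 8 µL received 7.5 nL stock; the first replicate is given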
UCH37 DUB inh – inhibitors of human UCH37 deubiquitinase, primary screen, biochemical, Ub-AMC cleavage, fluorescence; Ubiquitin carboxyl-terminal hydrolase isozyme L5 (Homo sapiens), Q9Y5K5; purified proteasome/UCH37; inhibition, % (concentration not given with the values); 0.33% of 330,000 active;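 active = mean of two replicates above 20%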;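 also: 0% = compound-free wells with enzyme and 100% = wells lacking proteasome; stock transfer was 100 nL into about 20 µL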
Target sequence (Q9Y5K5 whole entry, looked up): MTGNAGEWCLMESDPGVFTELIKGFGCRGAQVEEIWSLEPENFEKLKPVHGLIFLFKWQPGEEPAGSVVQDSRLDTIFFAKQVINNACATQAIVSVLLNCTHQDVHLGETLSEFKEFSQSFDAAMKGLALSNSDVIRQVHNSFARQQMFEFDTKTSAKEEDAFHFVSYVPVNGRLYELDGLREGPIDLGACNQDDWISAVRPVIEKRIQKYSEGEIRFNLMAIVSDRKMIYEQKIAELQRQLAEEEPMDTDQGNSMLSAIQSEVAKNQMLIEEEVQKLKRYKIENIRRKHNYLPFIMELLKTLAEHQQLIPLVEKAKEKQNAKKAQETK
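Signal – fluorescence, ex 355 nm, em 460 nm · System – Proteasome-bound UCH37 · Input – 0.15 nM proteasome as dispensed · Timing – 30 min preincubation with enzyme, 25 min cleavage at room temperature · Read-out basis – percent inhibition of cleavage signal versus uninhibited and no-proteasome wells · Medium – Tris-HCl pH 7.4 with ATP-MgCl2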
Beta2AR agonist – beta2AR agonists driving receptor internalization, primary screen, cell-based, FAP fluorogen, flow cytometry; Beta-2 adrenergic receptor (Homo sapiens), P07550; AID 504454, 2011; 0.43% of 340,000 active; Am2.2-beta2AR cells; reference of the scale not given here; response, % (test concentration not listed);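 active = response above a set limit, near 3 SD of response in nonfluorescent compounds, cut at about 42% in these data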;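 also: stock transfer was 100 nL into about 11 µL; a reference agonist was the positive control; negative values mostly stem from fluorescent compounds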
LANA-H2B inh – blockers of LANA interaction with H2A/H2B – biochemical, FP readout, HTS, primary screen; inhibition, % (test concentration not listed); AID 2629, 2010; cell-free LANA-H2A/H2B peptide, fluorescence polarization; 0.6% of 320,000 active; in the data active = inhibition mostly above about 10%, no sharp cut-off; inactive = mostly below about 6.7%;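 also: stock transfer was 7.5 nL into about 10 µL; 0% = median of vehicle wells and 100% = median of positive control wells; one replicate is shown; the record names a cut of 25% in any replicate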
A1 inh – caspase 3/7 activation in MEF A1-2A-BIM cells, primary screen, A1 inhibitor project, cell-based, luminescence, HTS | Caspase-Glo 3/7 luminescence, 3 h; percent of clofoctol response, vehicle zero | caspase activation, % (test concentration not listed) | 0.066% of 330,000 active | AID 2462, 2010;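 active = over half of replicate activation scores above 10%, or exactly half above 10 with the replicate mean above 10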;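 also: wells of about 30 µL received 50 nL stock; many hits fall short of the cut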
Beta cell apopt – inhibitors of cytokine-induced beta cell apoptosis, primary screen, luminescence; INS-1E cytokine-induced death, ATP luminescence, 48 h; percent of positive-control rescue, neutral wells zero; protection from apoptosis, % (test concentration not listed); 0.8% of 300,000 active; AID 435005, 2010;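 active = all replicates at 75% or more, or half of them and the mean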;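 also: 0% = cytokine-treated negative control wells and 100% = positive control rescue; higher means more ATP so stronger rescue from cytokine killing; wells of about 40 µL received 100 nL stock; the first replicate is given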
T cruzi repl – inhibitors of intracellular T. cruzi growth, primary screen, luminescence, NIH3T3 host cells; T. cruzi beta-gal in NIH3T3, 90 h; inhibition, % (test concentration not listed); 1.4% of 300,000 active; AID 1885, 2009;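 active = mean inhibition across valid replicates above about 55%, limit read from the data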;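 also: signal also drops with host cell toxicity which is not excluded here; 0% = plate median of DMSO wells and 100% = zero luminescence signal; higher percent means less beta-gal luminescence so fewer parasites; stock transfer was 50 nL into about 50 µL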
* hit, by the source's call. Not a hit list. About 4.3% of those tested had a hit in this group.

`COCCNC(=O)c1cccc(OC2CCN(Cc3ccccc3OCCO)CC2)c1` gave RanGTP-Imp inh 0.3, Calb FLC 3, UCH37 DUB inh 0.8, Beta2AR agonist -6, LANA-H2B inh 5.6, A1 inh -0.1 and T cruzi repl -8.
Screening COc1cccc(CN(C)Cc2nc3cc(C(F)(F)F)ccc3c(=O)[nH]2)c1 returned RanGTP-Imp inh -1.0, Calb FLC -1, UCH37 DUB inh 0.7, Beta2AR agonist -6, LANA-H2B inh -0.4, A1 inh 0.9, Beta cell apopt -5 and T cruzi repl 6.
Screening N#Cc1c(NC(=O)/C=C/c2ccco2)sc2c1CCCC2 returned RanGTP-Imp inh -0.4, Calb FLC 15, UCH37 DUB inh -8.2, Beta2AR agonist 11, LANA-H2B inh -0.6, A1 inh 1.0, Beta cell apopt 40 and T cruzi repl 1.
Screening CC(C)(C)c1cc(NC(=O)COC(=O)C2CC2)n(-c2ccccc2)n1 returned RanGTP-Imp inh -1.5, UCH37 DUB inh 0.8, Beta2AR agonist -4, LANA-H2B inh 1.7, A1 inh 0.3, Beta cell apopt 0 and T cruzi repl -18.
N#CC1(CCCN2CCCCC2)c2ccccc2CCc2ccccc21 was read as RanGTP-Imp inh 3.7, Calb FLC 12, UCH37 DUB inh 7.7, Beta2AR agonist 5, LANA-H2B inh 1.2, A1 inh -0.6, Beta cell apopt 13 and T cruzi repl 20.
For Cc1ccc(S(=O)(=O)n2cnc3ccccc32)cc1 the results were RanGTP-Imp inh 0.4, Calb FLC -11, UCH37 DUB inh 1.3, Beta2AR agonist 4, LANA-H2B inh 4.9, A1 inh -1.6, Beta cell apopt -2 and T cruzi repl 11.
For COc1ccc(-n2nc3c(c2NC(=O)c2cc(Br)ccc2Cl)CS(=O)C3)cc1 (stereo not given) the results were RanGTP-Imp inh -2.6, Calb FLC 8, UCH37 DUB inh 3.9, Beta2AR agonist -1, LANA-H2B inh -2.3, A1 inh 0.8, Beta cell apopt -3 and T cruzi repl -5.
Screening S=C(N/N=C/c1ccc2ncccc2c1)Nc1cccnc1 returned RanGTP-Imp inh 0.8, Calb FLC 10, Beta2AR agonist -12, LANA-H2B inh 2.7, A1 inh 1.3, Beta cell apopt 2 and T cruzi repl -5.
For O=C(NCCCCCCNC(=O)N1CCCCCC1)N1CCCCCC1 the results were RanGTP-Imp inh -1.7, Calb FLC -1, UCH37 DUB inh 1.9, Beta2AR agonist -8, LANA-H2B inh 1.7, A1 inh 1.3, Beta cell apopt -5 and T cruzi repl -4.
CN(C(=O)C1CCC(=O)N(CCc2ccc(Cl)cc2)C1)C1CCOCC1 (stereo not given) was read as RanGTP-Imp inh 0.4, Calb FLC -23, UCH37 DUB inh 0.5, Beta2AR agonist 3, LANA-H2B inh 3.0, A1 inh 0.0, Beta cell apopt -2 and T cruzi repl 4.
`CCc1cc2c(=O)n(CC(=O)NCCc3ccc(OC)c(OC)c3)cnc2s1` gave RanGTP-Imp inh 0.0, Calb FLC -1, UCH37 DUB inh 1.9, Beta2AR agonist 9, LANA-H2B inh 4.8, A1 inh 0.5, Beta cell apopt 0 and T cruzi repl -14.
`CCCSc1ccc([C@@H]2[C@@H]3C(=O)N(C)C(=O)[C@@H]3[C@]3(C(=O)OC)CCCCN23)cc1OC` gave RanGTP-Imp inh -1.2, Calb FLC 7, UCH37 DUB inh 1.4, Beta2AR agonist -3, LANA-H2B inh -1.3, A1 inh 0.4, Beta cell apopt -4 and T cruzi repl 0.
Screening Cc1cc(C)cc(NC(=O)c2sc3nc(C)cc(C)c3c2N)c1 returned RanGTP-Imp inh -0.9, Calb FLC -1, UCH37 DUB inh -199, Beta2AR agonist 3, LANA-H2B inh -2.8, A1 inh 0.3, Beta cell apopt 1 and T cruzi repl 9.
Screening CCN(Cc1ccc(C#CCCO)cc1)CC1CCCN(CCc2cccc(F)c2)C1 (stereo not given) returned RanGTP-Imp inh 6.8, Calb FLC 10, Beta2AR agonist 9, LANA-H2B inh 1.5, A1 inh -0.9, Beta cell apopt 6 and T cruzi repl 64*.
`COCCN1C(=O)c2ccccc2C(C(=O)NCc2ccco2)C1c1c[nH]c2ccccc12` (stereo not given) gave RanGTP-Imp inh -0.2, Calb FLC 0, Beta2AR agonist -2, LANA-H2B inh 0.7, A1 inh -0.1, Beta cell apopt -6 and T cruzi repl -2.

Reprinted from the entries so far, five compounds:
`CCc1cc2c(=O)n(CC(=O)NCCc3ccc(OC)c(OC)c3)cnc2s1` gave RanGTP-Imp inh 0.0, Calb FLC -1, UCH37 DUB inh 1.9, Beta2AR agonist 9, LANA-H2B inh 4.8, A1 inh 0.5, Beta cell apopt 0 and T cruzi repl -14.
`CCCSc1ccc([C@@H]2[C@@H]3C(=O)N(C)C(=O)[C@@H]3[C@]3(C(=O)OC)CCCCN23)cc1OC` gave RanGTP-Imp inh -1.2, Calb FLC 7, UCH37 DUB inh 1.4, Beta2AR agonist -3, LANA-H2B inh -1.3, A1 inh 0.4, Beta cell apopt -4 and T cruzi repl 0.
Screening Cc1cc(C)cc(NC(=O)c2sc3nc(C)cc(C)c3c2N)c1 returned RanGTP-Imp inh -0.9, Calb FLC -1, UCH37 DUB inh -199, Beta2AR agonist 3, LANA-H2B inh -2.8, A1 inh 0.3, Beta cell apopt 1 and T cruzi repl 9.
Screening CCN(Cc1ccc(C#CCCO)cc1)CC1CCCN(CCc2cccc(F)c2)C1 (stereo not given) returned RanGTP-Imp inh 6.8, Calb FLC 10, Beta2AR agonist 9, LANA-H2B inh 1.5, A1 inh -0.9, Beta cell apopt 6 and T cruzi repl 64*.
`COCCN1C(=O)c2ccccc2C(C(=O)NCc2ccco2)C1c1c[nH]c2ccccc12` (stereo not given) gave RanGTP-Imp inh -0.2, Calb FLC 0, Beta2AR agonist -2, LANA-H2B inh 0.7, A1 inh -0.1, Beta cell apopt -6 and T cruzi repl -2.
